# Assay outcomes (PubChem BioAssay)
# CtBP-E1A inh = qHTS Assay for Inhibitors of the CtBP/E1A Interaction | AID 651724, 2012 | CtBP / adenovirus E1A interaction (AlphaScreen) | activity change, % (no concentration beside the values) | AlphaScreen GST-E1A/His-CtBP binding, 1536-well; stronger effect = lower value; control for the full effect not named in the record | hit rate 0.49% among 340,000; in the data active means activity change below about -65%; inconclusive means about -30% to -65%; inactive means above about -30%; note: % is set by controls: 0 for no effect and ±100 for the full control effect; compound concentration not given in the record
#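 Protein mix (5X: 125 nM each GST-E1A, His-CtBP) was incubated with pinned compound 2 h at 37 deg C in dark, in 50 mM Tris pH 8.0 buffer with 300 mM NaCl. Glutathione donor and nickel acceptor beads followed; AlphaScreen signal read after 1 h.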
# Six1-Eya2 inh = qHTS Assay for Inhibitors of the Six1/Eya2 Interaction; Homeobox protein SIX1 (Homo sapiens) + Protein phosphatase EYA2 (Homo sapiens), …; hit rate 0.56% among 360,000; activity change, % (no concentration beside the values); AlphaScreen GST-Six1/His-Eya2 binding, biochemical; stronger effect = lower value; control for the full effect not named in the record; in the data active = activity change below about -65%; inconclusive = about -30% to -65%; inactive = above about -30%; note: % is set by controls: 0 for no effect and ±100 for the full control effect; compound concentration not given in the record
#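 Homogeneous AlphaScreen proximity assay pairing GST-Six1 with His-tagged Eya2 (added as 5X mix: 250 nM and 500 nM) in 50 mM Tris pH 8.0, 300 mM NaCl, 1 mM TCEP. Glutathione donor and nickel acceptor beads; 1 h, 37 °C, dark.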
# D2 PAM = Beta-Arrestin HTS for Positive Allosteric Modulators of the Human D2 Dopamine Receptor: Potentiators | D(2) dopamine receptor (Homo sapiens), P14416 | AID 624464, 2012 | hit rate 0.23% among 360,000 | DiscoveRx D2 beta-arrestin cells, luminescence, 90 min; 100% = 57 uM dopamine signal | potentiation, % (test concentration not listed); active = potentiation of 50% or more; inconclusive = 30% to 50%; inactive = 30% or less;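 note: compound concentration not given in the record; tested on top of an EC20 dose of dopamine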
# Target sequence (P14416 whole entry, looked up): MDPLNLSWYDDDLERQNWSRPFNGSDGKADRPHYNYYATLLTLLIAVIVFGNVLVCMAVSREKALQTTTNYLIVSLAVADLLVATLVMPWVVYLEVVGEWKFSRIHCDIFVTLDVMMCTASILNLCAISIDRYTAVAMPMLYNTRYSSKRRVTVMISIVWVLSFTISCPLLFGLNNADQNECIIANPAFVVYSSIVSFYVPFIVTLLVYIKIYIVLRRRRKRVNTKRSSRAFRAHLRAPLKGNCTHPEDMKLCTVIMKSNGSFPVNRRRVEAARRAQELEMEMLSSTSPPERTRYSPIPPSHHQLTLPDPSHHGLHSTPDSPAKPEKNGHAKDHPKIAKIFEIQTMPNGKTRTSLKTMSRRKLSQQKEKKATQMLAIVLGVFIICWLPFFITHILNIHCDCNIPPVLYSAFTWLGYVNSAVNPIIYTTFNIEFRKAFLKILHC
#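 D2 cells co-treated with compound plus 50 nM dopamine (EC20) for 90 min at 37 deg C to detect potentiation. Beta-arrestin recruitment was read as enzyme-fragment luminescence after 1 h at ambient temperature. Full response was set by 57 uM dopamine.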
# TRPV1 PAM = HTS Assay for Compounds that Act as Potentiators of the Vanilloid Receptor 1; TRPV1-expressing cells, Fluo-8 calcium influx, capsaicin EC20 potentiation; host cell line not named in the record; control for the full effect not named in the record; hit rate 0.02% among 320,000; potentiation, % at 8.33 µM; AID 540277, 2011; active means potentiation above 80%; inconclusive means 30% to 80%; inactive means below 30%; note: 0% is about no effect
#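 TRPV1-expressing cells were cultured overnight at 35.5C and loaded with Fluo-8 calcium dye for 40 to 90 min at room temperature. After a 10 s baseline, compound was added and calcium influx was read kinetically for 3 min (ex 480/em 520 nm).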
# TRPML1 ag = qHTS for Agonists of the Human Mucolipin Transient Receptor Potential 1 (TRPML1) | Mucolipin-1 (Homo sapiens), Q9GZU1 | TRPML1-expressing cells, Ca2+ dye fluorescence, FDSS; host cell line not named in the record; reference of the full effect not given here | activation, % (concentration not given with the values) | hit rate 0.12% among 410,000; in the data active = activation above about 50%; inconclusive = about 30% to 50%; inactive = below about 30%; note: 0% is about no effect; the text of the record puts the active cut at 80%
# Target sequence (Q9GZU1 whole entry, looked up): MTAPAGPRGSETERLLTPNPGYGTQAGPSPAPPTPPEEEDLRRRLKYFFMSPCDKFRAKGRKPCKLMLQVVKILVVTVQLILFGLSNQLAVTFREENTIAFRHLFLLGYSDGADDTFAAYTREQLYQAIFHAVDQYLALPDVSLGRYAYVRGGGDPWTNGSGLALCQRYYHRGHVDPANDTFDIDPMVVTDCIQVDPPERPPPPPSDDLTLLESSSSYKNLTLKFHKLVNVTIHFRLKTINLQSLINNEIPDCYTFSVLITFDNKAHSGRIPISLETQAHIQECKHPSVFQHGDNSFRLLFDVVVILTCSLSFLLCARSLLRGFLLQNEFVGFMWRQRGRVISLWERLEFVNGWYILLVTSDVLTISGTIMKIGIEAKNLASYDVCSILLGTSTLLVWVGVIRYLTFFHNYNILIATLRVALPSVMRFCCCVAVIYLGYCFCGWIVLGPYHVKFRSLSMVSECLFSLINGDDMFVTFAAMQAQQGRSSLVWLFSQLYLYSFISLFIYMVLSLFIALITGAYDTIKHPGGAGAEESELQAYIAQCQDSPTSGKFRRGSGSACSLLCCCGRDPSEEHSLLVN
#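 Tet-induced TRPML1-DL cells, 1,500 per well, cultured overnight, were loaded with a no-wash Ca2+ dye for 45–90 min. Calcium fluorescence was recorded on the FDSS for 110 s after compound addition, before the EC80 agonist (4 uM 54-4) was added.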
# TRPML1 inh = qHTS for Inhibitors of the Human Mucolipin Transient Receptor Potential 1 (TRPML1); TRPML1-inducible cells, Ca2+ dye fluorescence, FDSS; stronger effect = lower value; inhibition of EC80 agonist-evoked calcium signal; activity change, negative = inhibition, % (no concentration beside the values); hit rate 0.02% among 390,000; in the data active means activity change below about -50%; inconclusive means about -30% to -50%; inactive means above about -30%;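 note: stimulus is agonist 54-4 at its EC80 concentration; % is set by controls: 0 for no effect and ±100 for the full control effect; compound concentration not given in the record; the text of the record puts the active cut at -80%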
#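 Calcium fluorescence in TRPML1-DL cells induced overnight with Tet: a 110 s read after compound pin addition, then a 110 s antagonist read after challenge with 54-4 at 4 uM final (EC80).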
# Active calls of the source: *; ? = inconclusive; . = no result given; & = joins results of further samples.
Molecule,CtBP-E1A inh,Six1-Eya2 inh,D2 PAM,TRPV1 PAM,TRPML1 ag,TRPML1 inh
COc1ccc(-n2nc([N+](=O)[O-])c(=NCCCN3CCCC3=O)n2O)cc1,4,8,23,3,-0.7,-10
Cc1ccc(CN2CC(C(=O)N3CCN(c4ccccc4O)CC3)CC2=O)cc1 (stereo unspecified),-5,-9,-6,-8,0.3,-10
CCOC(=O)NC(=O)COC(=O)Cc1cc(OC)c(OC)c(OC)c1,6,4,4,-5,0.1,-4
Fc1ccc(C2CCCN2Cc2nc(Cc3ccccc3F)no2)cc1 (stereo unspecified),1,19,-7,-11,0.9,54
Cc1ccc(C(=O)COc2ccc3c(C)cc(=O)oc3c2)cc1,-7,0,-5,4,1.3,2
CC(=O)c1cccc(-c2ccc3c(=O)[nH]c(Nc4ccccc4)cc3c2)c1,-1,-1,18,.,-0.8,-6
Cc1cnc(NC(=O)CSc2nnc(C)s2)s1,3,-1,-6,6,-0.4,16
O=[N+]([O-])c1ccc2nc(-c3ccc(OC(F)F)cc3)cn2c1,-16,-5,3,6,-0.8,13
O=C(Nc1nc2ccccc2[nH]1)c1cccc(F)c1,-3,-8,-2,-27,-0.2,2
Cc1ccc(N2CC(C(=O)Nc3cc(Cl)ccc3-n3cncn3)CC2=O)cc1 (stereo unspecified),2,-5,-66,-13,0.6,-8
Cc1c([N+](=O)[O-])cc(C(=O)Nc2ccc3ncccc3c2)cc1[N+](=O)[O-],2,-11,2,-11,0.6,-14
Cc1cc(SCc2cc(=O)n3ccsc3n2)nc2ccccc12,-20,4,-4,2,1.0,30
CC(=O)OCC(COC(C)=O)OC(C)=O,-18,5,-5,-1,1.5,-1
CCOC(=O)C1CCN(C(=O)c2oc3ccc(S(=O)(=O)N4CC(C)CC(C)C4)cc3c2C)CC1 (stereo unspecified),2,-10,-11,6,0.6,13
COc1ccc(NC(=O)N2CCN(S(C)(=O)=O)CC2)c(OC)c1,.,12,-5,4,-0.3,1

# In the list so far, three contain an aryl methoxy group.
Molecule,CtBP-E1A inh,Six1-Eya2 inh,D2 PAM,TRPV1 PAM,TRPML1 ag,TRPML1 inh
COc1ccc(-n2nc([N+](=O)[O-])c(=NCCCN3CCCC3=O)n2O)cc1,4,8,23,3,-0.7,-10
CCOC(=O)NC(=O)COC(=O)Cc1cc(OC)c(OC)c(OC)c1,6,4,4,-5,0.1,-4
COc1ccc(NC(=O)N2CCN(S(C)(=O)=O)CC2)c(OC)c1,.,12,-5,4,-0.3,1

# Back to the main list, starting three compounds before the break.
Molecule,CtBP-E1A inh,Six1-Eya2 inh,D2 PAM,TRPV1 PAM,TRPML1 ag,TRPML1 inh
CC(=O)OCC(COC(C)=O)OC(C)=O,-18,5,-5,-1,1.5,-1
CCOC(=O)C1CCN(C(=O)c2oc3ccc(S(=O)(=O)N4CC(C)CC(C)C4)cc3c2C)CC1 (stereo unspecified),2,-10,-11,6,0.6,13
COc1ccc(NC(=O)N2CCN(S(C)(=O)=O)CC2)c(OC)c1,.,12,-5,4,-0.3,1
c1ccc(COc2ccc(OCCN3CCCCC3)cc2)cc1,-6,2,-6,3,2.3,0
Nc1ccc(-c2nc3ccc(C(=O)O)cc3s2)cc1,-11,-11,-3,-4,0.7,-19
COc1ccc(/C=N/NC(=O)c2nc(Cl)c(Cl)c(N)c2Cl)cc1COc1ccc(F)cc1F,0,-7,0,0,3.3,24
CC(=O)N1c2ccc(S(=O)(=O)NCC3CCC(C(=O)NCc4ccc(C)cc4)CC3)cc2CC1C (stereo unspecified),.,-4,-14,5,0.9,2
Cc1ccc(S(=O)(=O)CCC(=O)NCc2ccccc2)cc1,6,2,-5,3,-0.9,-3
COc1ccc(NC(=O)CN(Cc2ccccc2)S(C)(=O)=O)cc1,0,-1,-5,7,0.6,-8
Cc1cccc(NC(=O)c2ccc(CN3CCc4ccccc4C3)cc2)c1C,6,5,-11,?,0.7,6
Cc1ccc(-n2ncc3c2CC(C)(C)CC3NC(=O)CCN2CCCCC2=O)cc1 (stereo unspecified),1,10,7,-2,0.1,25
COc1ccc(C2C(C(=O)Nc3ccc(F)cc3)=C(C)Nc3nc(CCCO)nn32)cc1 (stereo unspecified),4,0,-1,.,0.1,-10
COC(=O)c1ccc(NC(=S)NC2CC(C)(C)NC(C)(C)C2)cc1,8,3,-9,6,0.1,-7
N#Cc1c(SCC(=O)Nc2ccccc2C(F)(F)F)sc2c(O)cc(=O)[nH]c12,3,-5,-1,19,0.6,-8
COc1cc(/C=C/C(=O)c2ccc([N+](=O)[O-])o2)ccc1O,3,26,?,-12,-0.6,-25
COc1ccc(CN(C2CC2)S(=O)(=O)c2ccccc2Br)cc1,18,15,-4,.,2.1,67
CCCCOC(=O)c1ccc(NC(C)=O)cc1,7,-7,-7,-12,0.8,5
CCCCC(NC(=O)Cc1c(C)c2cc3c4c(oc3c(C)c2oc1=O)CCCC4)C(=O)O (stereo unspecified),7,4,-5,-19,.,.
C=CCn1c(COc2ccc(Cl)cc2)nnc1SCC(=O)Nc1ccc(S(N)(=O)=O)cc1,2,4,-10,3,-1.2,9
COC(=O)c1nc(-c2ccc(C)cc2)oc1N(C)C,-14,-5,-10,-38,0.1,12
O=C(Nc1ccccc1)c1ccc(COc2ccccc2)cc1,8,5,7,-2,0.9,2
CCCCn1c(N)c(N(CCOC)C(=O)COC(=O)CCOc2ccccc2C)c(=O)[nH]c1=O,6,1,-28,-6,-0.6,-11
CC1=CC(C)(C)NC(=S)N1c1ccccc1C,-2&-13,1&2,-5&-5,3,-0.5&0.1,7&-19
Cn1c(=O)c2cc(NC(=O)Cc3ccccc3F)ccc2n1-c1ccc(C(C)(C)C)cc1,-1,-1,-7,.,63*,.
Cc1ccc(-c2noc(CSc3nnc(Cc4ccccc4)n3-c3ccc(Cl)cc3)n2)cc1,-8,-13,-9,-1,3.3,-12
CN(/C(=N/S(=O)(=O)c1ccccc1)c1ccccc1)S(=O)(=O)c1ccccc1,4,2,6,15,-0.7,-12
N#CC1=C(N)OC2=C(C(=O)CC(c3ccccc3)C2)C1c1ccoc1 (stereo unspecified),0,20,-7,26,0.7,-10
COc1ccc(-n2c(SCc3ccc([N+](=O)[O-])cc3)nnc2-c2ccc(C)cc2)cc1,-16,-19,-32,-21,0.9,-6
C/C=C/C(=O)N[C@@H]1c2ccccc2CC[C@@H]1OCc1ccccc1,1,-4,-6,.,1.5,-15
CCC(C)N1CCCC1C(=O)Nc1c(C)cc(C)cc1C (stereo unspecified),1,0,-20,-5,-0.7,-11
C=CCn1c(-c2cc(OC)cc(OC)c2)n[nH]c1=S,0,-2,-4,3,-0.4,-2
Cc1ccccc1NC(=O)c1cccc(NC(=O)c2c(C(=O)O)cccc2[N+](=O)[O-])c1,1,2,-5,.,0.2,11
CSCCC(NC(=O)c1ccccc1Br)C(=O)NNC(=O)c1ccco1 (stereo unspecified),.,9,-2,6,0.3,0

# Single records, as listed above.
# Listed for CCOC(=O)C1CCN(C(=O)c2oc3ccc(S(=O)(=O)N4CC(C)CC(C)C4)cc3c2C)CC1 (stereo unspecified) = CtBP-E1A inh = 2; Six1-Eya2 inh = -10; D2 PAM = -11; TRPV1 PAM = 6; TRPML1 ag = 0.6; TRPML1 inh = 13
# Listed for Nc1ccc(-c2nc3ccc(C(=O)O)cc3s2)cc1 = CtBP-E1A inh = -11; Six1-Eya2 inh = -11; D2 PAM = -3; TRPV1 PAM = -4; TRPML1 ag = 0.7; TRPML1 inh = -19

# Next section.
Molecule,CtBP-E1A inh,Six1-Eya2 inh,D2 PAM,TRPV1 PAM,TRPML1 ag,TRPML1 inh
Cc1ccc(C(=O)NCCCN2CCOCC2)cc1,6,10,-7,.,0.1,-13
CCCCCCN1CC(=O)N2Cc3[nH]c4ccccc4c3C[C@H]2C1=O,-1,-3,3,22,0.4,4
NC1=NC[C@H](Cc2ccc(O)cc2)N1CCc1cc(C(F)(F)F)cc(C(F)(F)F)c1,-1,-2,-16,3,-0.5,0
Cc1ccc2c(c1)C=CC(C#N)N2C(=O)Oc1ccccc1 (stereo unspecified),0,20,-35,.,-0.1,-4
COc1ccc(CNC(=O)C2CCN(c3nc(-c4ccccc4)nc4c3CCC4)CC2)cc1,-4,-2,-15,-2,1.6,-6
COc1ccc(-c2csc(N3C(=O)C4C5c6ccccc6C(c6ccccc65)C4C3=O)n2)cc1 (stereo unspecified),0,-14,6,2,0.3,34
Cc1cccc(-n2ncc3c(NCc4cccnc4)ncnc32)c1,-13,1,-5,0,0.3,-1
Cc1ccc(NC(=O)COC(=O)C2CC(=O)N(Cc3ccccc3)C2)cc1F (stereo unspecified),4,-6,-6,2,1.1,13
COc1ccc(S(=O)(=O)N2CCN(CC(O)COc3ccc(C#N)cc3)CC2)cc1OC (stereo unspecified),0,1,-1,7,0.3,37
CC(C)n1cnnc1SCC(=O)NC(=O)c1ccccc1,4,6,1,14,-0.6,0
CC(=O)Nc1ccc(S(=O)(=O)NCc2ccc3[nH]c(C)cc3c2)cc1,-5,-1,-16,0,0.3,1
Cc1ccc(C(=O)c2sc(Nc3ccccc3)c(C#N)c2N)cc1,-13,-21,-6,7,0.7,9
Cc1ccc(C(C)C)c(OCC(=O)NNC(=O)Nc2ccccc2)c1,6,1,-14,.,0.7,8
COc1ccc(CNCCC(c2ccccc2)c2ccc3c(c2)OCO3)cc1 (stereo unspecified),-15,-12,-24,0,-0.3&0.8,-18&15
CCCC(=O)C1=C(O)C(C(=O)OC)C(C)(C)CC1=Nc1ccc(OC)cc1 (stereo unspecified),-1,-7,7,3,0.0,-8
COc1ccc(C(=O)COC(=O)Cn2c(C)csc2=O)c(OC)c1,2,-7,-5,12,0.5,28
CC(=C\c1ccccc1)/C=C1/SC(=O)N(CCCC(=O)Nc2ccc(C(=O)O)cc2)C1=O,-2,-7,-7,9,-0.9,39
COc1ccc(CC(=O)NNC(=O)c2ccoc2C)cc1OC,2,2,-7,.,-0.7,56
COC(=O)c1cc2occc2n1Cc1nc(-c2ccccc2F)oc1C,.,1,-11,9,0.9&-0.2,7&9
C[C@H](CO)N1C[C@H](C)[C@@H](CN(C)S(C)(=O)=O)Oc2ccc(NC(=O)NC3CCCCC3)cc2C1=O,7,5,-2,.,-0.3,-2
Clc1ccc(Cc2nc(-c3cccnc3)no2)cc1,6,5,-6,.,0.6,4

# Compounds as they come; about 0.95% have a hit in one of these screens.
